BasE inh – BasE siderophore enzyme inhibitors, primary screen, biochemical, Acinetobacter baumannii ATCC 17978, fluorescence polarization | purified BasE, fluorescence polarization binding displacement | inhibition, % (test concentration not listed) | 0.1% of 84,000 active | AID 485350, 2010;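 active means both replicates above 25% with normal brightness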;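 further: 0% = negative plate control signal and 100% = positive plate control signal; stock transfer was 100 nL into about 30 µL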
KSHV LANA nucl – inhibitors of KSHV LANA-nucleosome binding, primary screen, biochemical, fluorescence polarization, FITC-LANA1-23, chicken nucleosomes; FITC-LANA1-23 / chicken nucleosome fluorescence polarization; stronger effect = lower value; z-score (concentration not given with the values); AID 720717, 2013; 0.3% of 51,000 active;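 active means both repeat wells score below -2 in polarization z-score versus plate sample wells, excluding overly bright wells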;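 further: 100 nL library stock added to about 30 µL; numbers are from one replicate; some results filed as inactive read as strong as hits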
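Material: Purified chicken nucleosomes with FITC-labelled LANA N-terminal peptide (1-23) | Reagent: 50 nM FITC-LANA1-23 probe | Medium: TEN-BT buffer, pH 7.5 | Times: 10–45 min incubation at room temperature | Detection: Fluorescence polarization | Replication: Duplicates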
* hit, by the source's call; . = no result given; & = joins results of further samples. Only part of the results is shown. The share of hits here may be higher or lower than overall.

Compound	BasE inh	KSHV LANA nucl
CCOc1ccc2[nH]c(S(=O)(=O)CC)nc2c1Cl	-1.3	-0.554
S=C1NC2Nc3ccccc3C2=NN1CC1CCCO1 (stereo unspecified)	-1.1	.
CCCN1CCC(Nc2ccc(SC)cc2)CC1	-0.8	-1.28
CCOc1ncccc1C(=O)N(CC)CC(=O)NCc1ccc(Cl)cc1	-3.2	.
CCc1ccc(-c2nc(CSCC(=O)N3CCN(c4ccccc4)CC3)c(C)o2)cc1	1.1	0.465
CCOC(=O)c1c(C)oc2ncnc(NC(C(=O)OCC)C(C)O)c12 (stereo unspecified)	0.9	-1.15
O=C(N/N=C/c1ccccc1O)NC12CC3CC(CC(C3)C1)C2	2.4	0.695
COC(=O)c1sccc1NC(=O)CC1C(=O)NCCN1C(=O)Nc1ccccc1 (stereo unspecified)	0.3	-1.03
C/C(=N\OC(=O)Nc1c(-c2c(Cl)cccc2Cl)noc1C)C(C)(C)C	-0.3	-0.241
COc1cc(/C=N/n2cnnc2)ccc1OCC(=O)N1CCOCC1	-0.7	0.415
CN(C)c1ccc(NC(=O)NCC2CCCC(CNC(=O)Nc3ccc(N(C)C)cc3)C2)cc1 (stereo unspecified)	5.2	.
Cc1cccc(CN2CCC(CNc3ncnc4onc(-c5ccc(F)cc5)c34)CC2)c1	-2.4	.
Cn1c(SC2CCOC2=O)nc2ccccc2c1=O (stereo unspecified)	1.0	0.294
CCOc1cccc(C=Nc2ccc(Br)cn2)c1O	2.1	0.24
O=c1cc(Cl)c2ccccc2o1	-2.8	0.787
CCCN1C(=O)/C(=N\OCc2ccc(C#N)cc2)c2ccccc21	2.1	.
CC1(C(=O)N2CCOCC2)Cc2ccccc2C(=O)O1 (stereo unspecified)	-1.3	0.397
Oc1ccc(OCc2ccccc2)c(F)c1	.	-0.037
O=C(O)CSc1nc2ccc(Br)cc2[nH]1	1.1	.
O=C(OC(C(=O)NC1CCCC1)c1ccccn1)c1cccs1 (stereo unspecified)	-0.9	-0.243
O=C(NCCN1C(=O)S/C(=C\c2ccc(OC(F)F)cc2)C1=O)C1COc2ccccc2O1 (stereo unspecified)	-0.7	.
S=c1nc(-c2ccccc2)oc2c1CCCC2	1.4	.
COc1cccc(C(=O)N(Cc2nc(-c3ccccc3)no2)C(C)C)c1	0.7	-0.337
CC(C)NC(=S)N/N=C/c1cn(-c2ccccc2)nc1-c1cccs1	2.4	.
CC(C)CNS(=O)(=O)c1ccc(S(=O)(=O)N2CCN(c3ccccc3)CC2)cc1	-1.1	-0.483
CCC(C)Cc1c(C)sc2[nH]c(=S)[nH]c(=O)c12 (stereo unspecified)	1.4	.
CCn1cc(C2=NOC(C(=O)NCc3ccccc3)C2)c(C)n1 (stereo unspecified)	-1.4	-1.09
COc1cccc(CNC(=O)c2ccc3c(c2)N(C)CCS3)c1	4.5	-0.565
NC(=O)C1CCN(c2ncccn2)CC1	.	0.401
O=C(CCn1c(=O)[nH]c2ccsc2c1=O)Nc1ccc(F)c(F)c1	1.7	-0.853
COc1cc(C(F)(F)F)c(C(=O)N(C)Cc2ccc(Cl)c(Cl)c2)cn1	.	-0.473
CCCCC(CC)CN1CN(CC(CC)CCCC)CC(C)(N)C1 (stereo unspecified)	-2.1&-2.0	-0.242&-0.0445
COc1ccc(NC(=O)CN2CC(C)OC(C)C2)cc1OC (stereo unspecified)	-0.1	.
NC(=O)c1c(N)c(C(N)=S)n2c1CCC2	0.9	.
O=C1Nc2ccccc2C12NNC(=S)NN2	1.3	-0.267
Cc1noc(C)c1CSCC(=O)c1cc(C)n(-c2ccccc2)c1C	0.5	.
CC(SCC(=O)N1CCCCCC1)c1nc2scc(-c3cccs3)c2c(=O)[nH]1 (stereo unspecified)	-0.3	.
NCCNc1ccccn1	-1.6	-0.0705
CCCn1c(=O)c2sccc2n2c(CCCC(=O)NCCc3ccccc3)nnc12	-0.9	0.968
O=c1c2ccccc2cnn1-c1ccccn1	1.3	.

Ordered by count of non-hydrogen atoms (ascending): 3 of the compounds above.
Compound	BasE inh	KSHV LANA nucl
S=C1NC2Nc3ccccc3C2=NN1CC1CCCO1 (stereo unspecified)	-1.1	.
COc1cc(C(F)(F)F)c(C(=O)N(C)Cc2ccc(Cl)c(Cl)c2)cn1	.	-0.473
CC(C)CNS(=O)(=O)c1ccc(S(=O)(=O)N2CCN(c3ccccc3)CC2)cc1	-1.1	-0.483

The listing picks up, starting two compounds before the break.
Compound	BasE inh	KSHV LANA nucl
CCCn1c(=O)c2sccc2n2c(CCCC(=O)NCCc3ccccc3)nnc12	-0.9	0.968
O=c1c2ccccc2cnn1-c1ccccn1	1.3	.
COCCN1C=C(C(=O)OC)C(c2cc3c(cc2Br)OCO3)C(C(=O)OC)=C1	6.5	0.635
Cc1ccc(S(=O)(=O)N(C)Cc2ccc(-c3nnco3)cc2)cc1	-1.2	.
Cc1ccc(NC(=O)c2ccc(CN3CCCn4nc(C)cc43)cc2)c(C)c1	-2.9	-0.133
CCCCn1c(SCC(N)=O)nc2cc(S(N)(=O)=O)ccc21	0.3	.
NS(=O)(=O)c1cc(C(=O)NCC(F)(F)F)ccc1Cl	3.0	.
CCOC(=O)/C(C#N)=N/O	1.6	.
FC(F)(F)c1cc(-c2ccco2)nc(NCCc2ccccc2)n1	-0.7	0.168
CC1Sc2nnc(C(C)(C)C)n2N=C1c1ccc(Cl)cc1 (stereo unspecified)	-0.9	.
CCCCC1CCC(C(=O)NCC(c2ccco2)N2CCCC2)CC1 (stereo unspecified)	-1.1	0.0965
COC(=O)c1ccc(CSc2nnc(SCC(=O)c3ccc(C)cc3C)s2)o1	0.0	.
Cc1[nH]c2ccccc2c1C(=O)CSc1nnc(C2CC2)n1C	2.3	.
O=C(CSc1nnc(CSc2nc3ccccc3s2)n1Cc1ccccc1)NC1CCS(=O)(=O)C1 (stereo unspecified)	-4.4	.
COc1ccc(C(=O)Cc2ccc(F)cc2)c(OC)c1	-2.2	2.06
COc1cccc(C2C3=C(CC(C)(C)CC3=O)Nc3ccccc3N2C(C)=O)c1 (stereo unspecified)	2.4	.
CC(C)c1nccn1CCC(=O)O	1.6	.
CCc1nn2c(=O)cc(COc3ccc(NC(=O)c4ccccc4)cc3)nc2s1	-4.8	0.501
O=C1c2ccccc2C(=O)N1c1ncn[nH]1	3.8	-0.031
O=C(Cn1c(=O)n(-c2ccc(F)cc2)c(=O)c2oc3ccccc3c21)NC1CCCCC1	0.4	-0.909
Cc1cc2c(cc(C(=O)N3CCC(C(=O)NCc4ccc5c(c4)OCO5)CC3)n2Cc2c(F)cccc2Cl)o1	2.0	-0.759
CN(C)C(=O)COC(=O)Cn1cnc2ccccc21	2.1	.
CC1(C)CC(NC(=O)c2ccccc2Cl)CC(C)(C)N1	2.1	-0.917
CC(C)Cc1cc(C(=O)Nc2sc3c(c2C#N)CCC3)no1	3.2	-0.508
COc1ccc(C(=S)N2CCN(C(N)=S)CC2)cc1	-0.5	-0.607
O=c1nc(NCc2ccccc2)cn[nH]1	0.8	-0.0035
O=S(=O)(c1ccc(NCCc2ccccn2)nc1)N1CCCC1	-0.8	.
O=C(Cc1ccc(S(=O)(=O)N2CCCC2)s1)Nc1ccc2c(c1)OCO2	0.8	.
Cc1cc(=O)[nH]c(SC(C)C(=O)NC2CCCCC2)n1 (stereo unspecified)	2.5	-0.227
Cc1ccc2c(c1)NC(c1ccc(N(C)C)cc1)O2 (stereo unspecified)	3.8	.
CCNc1nc(-c2cccc(C(F)(F)F)c2)cs1	0.8	.
CCn1c(COC(=O)/C=C/c2nc3ccccc3s2)nc2cc(S(=O)(=O)N(C)C)ccc21	0.6	.
COc1ccccc1CNc1nc(-c2cc(C)n(C)c2C)cs1	-0.2	.
CCC(NC(N)=O)C(=O)O (stereo unspecified)	1.4	.
O=C(Cc1cccc2ccccc12)Nc1nnc(-c2ccncc2)o1	-4.8	0.155
CC(C)(C)n1nc(C2CC2)cc1NC(=O)Nc1ccccc1	0.5	.
COC(=O)C1=CNC=C(C(=O)OC)C1c1ccc(C(F)(F)F)cc1	-1.0	0.782
CCOC(=O)CN1C(=S)NC(C)(C)C=C1C	0.8	0.615
O/N=C/c1cccs1	.	-0.543
FC(F)Oc1ccc(Cl)cc1COc1ncnc2ccccc12	-0.7	.
COCC(C)n1c(SC(C)C(=O)NC2(C#N)CCCCC2)nc2ccccc2c1=O (stereo unspecified)	0.2	.
C=C(C)C(=O)Nc1ccc2c(c1)C(=O)NC2=O	0.9	.

Reformatted field by field: entries from further up.
SMILES: O/N=C/c1cccs1
  BasE inh = .
  KSHV LANA nucl = -0.543

SMILES: FC(F)Oc1ccc(Cl)cc1COc1ncnc2ccccc12
  BasE inh = -0.7
  KSHV LANA nucl = .

SMILES: COCC(C)n1c(SC(C)C(=O)NC2(C#N)CCCCC2)nc2ccccc2c1=O (stereo unspecified)
  BasE inh = 0.2
  KSHV LANA nucl = .

SMILES: C=C(C)C(=O)Nc1ccc2c(c1)C(=O)NC2=O
  BasE inh = 0.9
  KSHV LANA nucl = .

(next part)
Sequence of screens: BasE inh	KSHV LANA nucl
- NNc1nc2c(c(=O)[nH]1)C1(CCCCC1)Cc1ccccc1-2
    1.8	-0.625
- Cn1nc(-c2ccc3c(c2)OCCO3)c2ccccc2c1=O
    4.0	.
- NC(=O)/C=C/C(=O)NCc1ccccc1
    0.5	0.697
- C(#Cc1ccccc1)CN1CCCCC1
    -1.2	-0.891
- Cc1cccc(NC(=O)Cn2c(=O)n3nc(CCn4nc(C)cc4C)nc3c3ccccc32)c1
    -1.2	-0.583
- CC(NC(=O)COn1nnc2ccccc21)C1CC2CCC1C2 (stereo unspecified)
    -0.4	.
- Cc1[nH]nc2c1C(c1ccccc1)C1=C(CC(C)(C)CC1=O)N2 (stereo unspecified)
    0.5	0.23
- O=S(=O)(NCc1ccco1)c1ccc2c(c1)Cc1ccccc1-2
    -0.3	0.0995
- O=C1OCCC1Sc1nc(C2CCCCC2)n(-c2ccccc2)n1 (stereo unspecified)
    -0.6	.
- CCOC(=O)c1c(CSCCN(CC)CC)oc2ccc(OC)cc12
    -8.9	-0.351
- COc1ccc(-c2nc(CN3CCC(C(=O)NC4CCN(Cc5ccccc5)CC4)CC3)c(C)o2)cc1OC
    -9.5	0.149
- CCOc1ccc(OCC)c(S(=O)(=O)n2cccn2)c1
    -0.1	-0.577
- CC(C)(CSc1ncccn1)NS(=O)(=O)c1ccccc1
    2.5	-1.03
- COc1ccc(CCN2C(=O)C(C)SC2c2cccnc2)cc1 (stereo unspecified)
    -0.1	.
- Nc1ccccc1C1C=NNC1=O (stereo unspecified)
    -8.4	.
- O=C(NC(=S)NC12CC3CC(CC(C3)C1)C2)c1ccco1
    -3.3	0.0445
- CC(C)(C)P(=NC(=O)C(F)(F)F)(N1CCCCC1)N1CCCCC1
    2.5	.
- CC(=O)NC(=O)CCSc1ccccc1C(=O)NC(C)=O
    2.7	-0.0305
- CC(NS(=O)(=O)c1ccc(C(C)(C)C)cc1)c1ccccc1 (stereo unspecified)
    -1.1	.
- Cc1nnc(COC(=O)c2cccc(S(=O)(=O)N3CCCCC3C)c2)o1 (stereo unspecified)
    -4.4	.
- COC(=O)c1ccc(-n2c(C)cc(C(=O)CSc3ncnc4sc5c(c34)CCC5)c2C)cc1
    3.1	.
- NS(=O)(=O)c1ccc(CCNC2=CC(=O)CC(c3ccco3)C2)cc1 (stereo unspecified)
    -1.9	1.06
- COC(=O)c1sccc1NC(=O)CC(=O)C(F)(F)F
    2.3	-0.353
- O=C(COC(=O)C1CC(=O)N(Cc2ccco2)C1)c1ccc(OC(=O)c2ccco2)cc1 (stereo unspecified)
    -1.1	0.402
- Cc1cccc(OCc2nnc(SCC(=O)c3ccc4c(c3)NC(=O)CO4)o2)c1
    -0.2	.
- COC(=O)C1=CN(C2CC2)C=C(C(=O)OC)C1c1ccc(O)cc1
    0.1	-0.713
- CC1=C(C(=O)OC(C)C(C)(C)C)C(c2cccc(Br)c2)NC(=O)N1 (stereo unspecified)
    3.2	.
- O=C(Nc1ccc2nc3n(c(=O)c2c1)CCCC3)c1cccc(F)c1
    -3.2	-0.336
- N#CC(C#N)=C1CCCCCN1
    -0.9	0.356
- Cc1ccc(NC(=O)Cn2ccsc2=N)c(Br)c1
    1.7	.
- Cc1nc(Nc2nc3ccccc3o2)nc(-c2ccc(Cl)cc2)c1C#N
    -0.3	0.109
- O=C(Cc1ccccc1)N1CCSC1=S
    -0.4	-0.452
- COc1ccc2c(c1)N(C)/C(=C1/SC(=Nc3ccc(C)cc3)N(C)C1=O)S2
    0.2	-0.598
- Cc1oc2ncn(CC(C)C)c(=O)c2c1C(=O)NCC1CCN(Cc2ccc(F)cc2)CC1
    -0.4	.
- O=C1NC2C3CC4CC(C3)CC2(C4)O1 (stereo unspecified)
    -0.3	0.012
- CN(CC(=O)N(C1CCCCC1)C1CCS(=O)(=O)C1)Cc1nc2ccccc2c(=O)[nH]1 (stereo unspecified)
    1.9	.
- Cc1ccc(NC(=O)CN(C)C(=O)COc2cccc3cccnc23)cc1
    0.1	.
- O=C(/C=C/c1cc(Br)ccc1F)OCC(=O)N1CCOCC1
    4.6	.
- CCN(CC)c1ccc(C2C(C#N)=C(N)N(c3cccc(C)c3)C3=C2C(=O)CCC3)cc1 (stereo unspecified)
    0.5	1.49

Screens: PubChem, ICCB-Longwood Screening Facility, Harvard Medical School
